From PubChem
HIV Env fusion = blocks HIV Env-driven cell-cell fusion; inhibition, % at 12.3 µM; 1.1% of 360,000 active; HeLa-JRFL Env/CEM21 cell fusion, luciferase; AID 651610;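 active = mean replicate inhibition score of at least 50 and every replicate individually at or above 50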;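 also: 0% = plate neutral controls and 100% = maraviroc near 300 nM; one replicate is shown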
PABP polyA inh = blocks human PABP binding to poly(A) RNA | 1% of 290,000 active | AID 2014 | P11940 | fluorescence polarization | inhibition, % at 35 µM;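 active = 50% or more with normal probe brightness, or confirmed in later tests; about a fifth of its hits are not listed in these tables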;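 also: calls also rest on retests at 20 µM and on dose response follow-up; controls were probe without protein and protein plus probe with vehicle; some compounds called inactive have numbers as strong as hits; many hits fall short of the cut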
Target sequence (P11940 whole entry, looked up): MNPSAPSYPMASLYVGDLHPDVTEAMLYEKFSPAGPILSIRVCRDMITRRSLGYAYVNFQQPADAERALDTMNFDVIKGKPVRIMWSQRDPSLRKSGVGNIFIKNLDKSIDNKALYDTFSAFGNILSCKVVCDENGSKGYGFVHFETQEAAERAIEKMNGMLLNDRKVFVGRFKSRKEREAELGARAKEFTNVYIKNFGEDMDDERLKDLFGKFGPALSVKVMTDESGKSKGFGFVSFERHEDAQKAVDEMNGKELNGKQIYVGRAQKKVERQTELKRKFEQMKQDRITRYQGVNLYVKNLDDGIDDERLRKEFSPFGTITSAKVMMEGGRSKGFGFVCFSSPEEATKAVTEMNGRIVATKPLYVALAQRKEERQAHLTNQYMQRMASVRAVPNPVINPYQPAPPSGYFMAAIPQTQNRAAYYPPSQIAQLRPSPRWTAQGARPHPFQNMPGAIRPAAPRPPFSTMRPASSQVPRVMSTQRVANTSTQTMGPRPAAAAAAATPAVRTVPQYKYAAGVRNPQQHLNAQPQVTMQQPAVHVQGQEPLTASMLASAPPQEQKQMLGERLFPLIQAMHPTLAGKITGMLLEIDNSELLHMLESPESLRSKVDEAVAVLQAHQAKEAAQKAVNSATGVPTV
eIF4H FP inh = inhibitors of RNA binding by human eIF4H. eIF4H fluorescence polarization binding assay. 0.94% of 290,000 active. Q15056. inhibition, % at 35 µM;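 active = 50% or more with normal probe brightness, or confirmed in later tests; about a fifth of its hits are not listed in these tables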;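 also: calls also rest on retests at 20 µM and on dose response follow-up; 0% = protein and probe with vehicle and 100% = probe without protein; strong numbers were not always called active; many hits fall short of the cut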
Yeast UUG start = alters start codon recognition fidelity in yeast; S. cerevisiae UUG-firefly luciferase reporter, luminescence/redox ratio; activity score, % at 18.7 µM; 0.13% of 350,000 active;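 active = replicate mean at a twofold rise or more, about +100% in these data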;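 also: firefly luciferase made from a UUG start codon reports start codon fidelity; reporter light over untreated wells divided by growth signal over untreated wells; some hits fall short of that in this replicate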
Rce1 inh = yeast Ras-converting enzyme inhibition; yeast membranes, quenched prenylated peptide cleavage fluorescence; calls only; 0.27% of 290,000 active; Q03530; AID 2563;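 active = fall in fluorescence gain of 50% or more versus controls, with final raw signal at or below 3038400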;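 also: plate controls were neutral control wells for no effect and wells lacking membranes for full effect; tested at 10 µM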
CSC inhib = blocks cancer stem cells | cancer stem cell-like cells viability, luminescence | 1.1% of 300,000 active | inhibition, % at 7.5 µM | AID 2717;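 active = mean at 75% or more and at least half the replicates too; tested in HMLE shEcad cells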;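 also: 0% = median of negative and 100% = median of positive control wells; the first replicate is given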
MT1-MMP act inh = inhibitors of human MT1-MMP activation; GFP/RFP ratio change, % at 20 µM; HT1080 RFP-PRO-GFP cells, GFP/RFP ratio fluorescence, overnight; percent of plate control window, DMSO zero; 0.061% of 360,000 active;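 active = GFP/RFP ratio change of at least 30% with cell ATP level not reduced by more than half and red fluorescence within 50% of control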; also: strong numbers were not always called active
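Assay system – RFP-PRO-GFP reporter HT1080 cells · Compound dosing – single dose of 20 µM compound, 1% DMSO final · Incubation – overnight compound exposure at 37 °C · Measure – GFP/RFP fluorescence ratio · Benchmarks – DMSO wells and RFP-L50D-GFP cells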
MT1-MMP act inh RFP = recorded beside MT1-MMP act inh, whose call it bears; RFP signal change, %; measured here: RFP expression control read;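 0 = vehicle wells; hits needed this value within 50% of zero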
An asterisk follows results filed as active; i = inactive; · = no result given; & = joins results of further samples; [ ] = dose if it differs, or a comment. An excerpt (hit frequency here may not be typical).

SMILES	HIV Env fusion	PABP polyA inh	eIF4H FP inh	Yeast UUG start	Rce1 inh	CSC inhib	MT1-MMP act inh	MT1-MMP act inh RFP
COc1ccc(C2=NN(C(=O)c3ccncc3)C(c3ccccc3O)C2)cc1 (stereo not drawn)	10	5	-19	1	i	-7	-7	-2
Cc1ccc(CCNC(=O)C23C[C@H]4C[C@@H](C2)CC(n2nnc(C)n2)(C4)C3)cc1	7	-7	0	·	i	-7	5	-1
O=C(Nc1cccc(C(=O)N2CCCCC2)c1)c1ccccc1Br	4	-4	-7	5	i	1	0	1
CCCCOc1ccccc1C1C(C(=O)OC)=CN(CC)C=C1C(=O)OC	·	-3	-1	9	i	-10	-3	-4
CC(C)(Oc1ccc(CCNC(=O)c2ccc(-c3ccc(Cl)cc3)o2)cc1)C(=O)O	11	6	-5	-9	i	-5	-2	-3
O=C(Nc1nnc(-c2ccc3c(c2)OCCO3)o1)C1CCCCC1	-28	-13	2	·	i	5	-5	-5
COC(=O)C1=C(C(=O)OC)[C@@H]2Nc3ccccc3[C@@]23C[C@@H](C(=O)OC)N(C(=O)NC2CCCCC2)C3=N1	-40	·	·	·	i	3	·	·
Nc1ccc2c(c1)C(=O)Cc1ccccc1S2	-4	1	10	·	i	-7	8	6
COc1ccc(C(=O)CCC(=O)N2CCN(c3ccc(N4CCOCC4)nn3)CC2)cc1	3	4	-14	-25	i	-2	-1	0
COc1cccc(C2=NOC(C(=O)NCC3CCCO3)C2)c1 (stereo not drawn)	-20	3	-2	·	i	-10	-1	3
C=C(C)C(=O)N1CC2(CC(c3cccc(NC(=O)/C(C)=C\C)c3)=NO2)C[C@H]1C(N)=O (stereo partly drawn)	-2	8	-7	-19	i	-11	0	2
Cc1cc(-c2ccc(C)c(S(=O)(=O)NCCCN3CCCCCC3)c2)on1	-4	6	-11	-9	i	4	0	6
CCc1nc2ccc(C(=O)NCc3ccccc3OC)cn2c1N(C)Cc1ccc(N(C)C)cc1	3	·	·	-18	·	·	-2	1
O=c1[nH]c(SCc2ccc(Cl)cc2)nc2c1CCC2	9	-1	6	-23	i	38	6	2
Cc1sc(NC(=O)CCCCC(=O)Nc2sc(C)c(C)c2C(=O)O)c(C(=O)O)c1C	6	·	·	·	i	-2	1	4
COc1ccc(C2CC(c3ccc4ccccc4c3OC(C)=O)=NN2C(C)=O)cc1 (stereo not drawn)	-84	-10	0	-3	i	30	5	-2
COc1cc(NC(=O)C2=C(C)OCCS2)c(Cl)cc1C(=O)NCCCN1CCCC(C)C1 (stereo not drawn)	8	·	·	0	·	·	-2	-3
O=C(CC(NC(=O)OCc1ccccc1)c1nn[nH]n1)OCc1ccccc1 (stereo not drawn)	-41	·	·	-15	·	·	-1	-1
CCSc1nnc(Cc2cc(=O)[nH]c(=O)[nH]2)n1-c1ccc(Cl)cc1	3	2	-5	-10	i	13	-4	3
O=C1CSCC(=O)N1Cc1ccc(Cl)cc1Cl	-5	-11	0	-11	i	-14	-2	-4

A run of entries of the results above, for reference:
SMILES	HIV Env fusion	PABP polyA inh	eIF4H FP inh	Yeast UUG start	Rce1 inh	CSC inhib	MT1-MMP act inh	MT1-MMP act inh RFP
COc1ccc(C2=NN(C(=O)c3ccncc3)C(c3ccccc3O)C2)cc1 (stereo not drawn)	10	5	-19	1	i	-7	-7	-2
Cc1ccc(CCNC(=O)C23C[C@H]4C[C@@H](C2)CC(n2nnc(C)n2)(C4)C3)cc1	7	-7	0	·	i	-7	5	-1

(cont.)
SMILES	HIV Env fusion	PABP polyA inh	eIF4H FP inh	Yeast UUG start	Rce1 inh	CSC inhib	MT1-MMP act inh	MT1-MMP act inh RFP
CCCS(=O)(=O)c1nc(S(=O)(=O)c2ccc(C)cc2)c(N2CCN(CC)CC2)s1	5	-6	-5	·	i	8	-6	-4
CN(C(=O)c1ccc2nc(N)sc2c1)c1ccccc1	19	-2	2	-2	i	-17	2	-1
Cc1ccc(CC(CC(=O)NCCc2ccc3c(c2)OCO3)C(=O)O)cc1 (stereo not drawn)	-1	8	6	-1	i	-6	0	13
Brc1ccc(-c2noc3c2-c2nc(-c4ccccc4)sc2CC3)cc1	1	·	·	0	i	24	-4	-1
CCOCCCn1c(NN)nc2ccccc2c1=O	0	-3	1	·	i	-10	-5	-6
O=C(NC1CCCCC1)c1ccc(NS(=O)(=O)c2cccc3cccnc23)cc1	7	-5	-5	·	i	2	-5	-1
CCOc1ccc(OCCC(=O)OC(C)C(=O)Nc2ccc(Cl)cn2)cc1 (stereo not drawn)	4	·	·	18	·	·	-2	1
Cc1sc2ncnc(NCCCn3ccnc3)c2c1C	-62	-9	1	2	i	·	4	1
Cc1ccc(C(=O)OC(C)CN2C(C)CCCC2C)cc1 (stereo not drawn)	5	-3	-1	7	i	0	-1	2
O=C(COc1ccc2ccccc2c1)Nc1cccnc1Cl	-14	-4	-7	-20	i	3	1	4
CCCCN(C)CCNC(=O)CCNC(=O)Cn1ccc2ccccc2c1=O	0	-14	3	·	i	-14	1	1
CCOC(=O)c1cnc(-n2nc(C)cc2C)nc1NNc1nc(C)cc(C)n1	4	3	-7	-36	i	7	0	0
COc1ccc(NCc2nnc(SCC(=O)Nc3ccccc3OC)o2)cc1	6	0	-5	-9	i	-7	0	6
CCOC(=S)SCC(=O)Nc1ncc(C)s1	31	8	0	·	i	6	0	-1
CCc1nc2c(OCCn3cccc3)cccn2c1N(C)C(=O)c1ccco1	9	·	·	-11	·	·	-3	1
CCN(Cc1ccc(OC)c(COC)c1)CC1CCCN(CCc2cccc(OC)c2)C1 (stereo not drawn)	-19	3	5	-10	i	26	3	5
CN(c1ccccc1C(=O)N1CCCC1)S(C)(=O)=O	·	3	-4	28	i	-3	1	1
Cc1ccc(C2=[N+]([O-])C(C)(C)CC2)cc1	-48	-4	6	-8	i	-1	-6	1
CC(C)(C)OC(=O)N1CCC(CNC(=O)Nc2ccccc2)CC1	-3	2	7	-9	i	-3	6	-2
COc1ccc(C(=S)N2CCCC2)cc1	-84	-8	-3	-27	i	-1	-3	5
O=C(O)/C=C/C(=O)Nc1ccc(Oc2ncnc3cc(Cl)ccc23)nc1	·	0	3	·	i	-12	·	·
COc1ccc(/C=N/NC(=O)CSc2ccccc2)cc1OC	·	2	-12	·	i	·	2	4
CCOc1ccc(Cl)cc1C(c1c(C)[nH][nH]c1=O)c1c(C)[nH][nH]c1=O	0	-3	0	-13	i	·	0	-1
CS(=O)(=O)N1CCCC(C(=O)Nc2cccc(F)c2)C1 (stereo not drawn)	7	6	-11	1	i	-12	0	1
Cc1nc([N+](=O)[O-])c(C(=O)O)n1C	-6	1	10	·	i	-12	-4	0
COc1cccc(Nc2nc(CC(C)=O)ns2)c1	-125	-2	-2	-17	i	-16	5	3
CN(CC(=O)Nc1ccccc1Cl)C(=O)CSc1ncc(C(F)(F)F)cc1Cl	24	8	-6	·	i	-3	-2	1
CCOc1ccc(S(=O)(=O)n2c(C)nc3ccccc32)cc1	22	-20	-1	-16	·	-9	4	-1
Cc1cc(Br)cn2c(Cc3ccsc3)c(-c3ccco3)nc12	-2	·	·	-21	·	·	-4	5
COc1cccc(C#Cc2ccc3c(c2)O[C@H](CN(C)S(=O)(=O)c2ccccc2F)[C@H](C)CN([C@H](C)CO)S3(=O)=O)c1	-12&-44[16.7 µM]	·	·	12&-6&-21	·	·	-4	-3
CC(=O)Nc1c(-c2ccccc2)nc2cc(C)ccn12	6	3	-1	-5	i	-7	2	1
CCOC(=O)C1=C(C)NC(=O)NC1c1ccoc1 (stereo not drawn)	·	3	2	4	i	-7	-2	2
COc1ccc(C(=O)/C=C/Nc2ccc(S(=O)(=O)Nc3ncccn3)cc2)cc1	·	4	-2	·	i	8	·	·
CCn1c(=O)c2cc(C(=O)NCCN(C)C)sc2c2ccccc21	-37	25	-1	-12	i	1	5	1
O=C(O)CCC1=C2c3ccccc3CCN2C(=O)CC1	-14	-13	1	0	i	3	-2	0
CCc1cc(CNC(=O)CCc2nnc(Cc3cccc(C)c3)o2)on1	-12	9	-3	-10	i	-3	2	6
COc1ccccc1/C=C/CN1CCCC(CO)(CCc2ccccc2)C1 (stereo not drawn)	15	5	-4	1	i	8	-2	-1
Cc1ccc(O)c(C(=O)CC(=O)c2cccc(F)c2)c1	·	-7	-10	·	i	8	-2	-11
COc1ccc2sc(-c3ccc(N(C)C)cc3)c(-c3ccc4cc[nH]c4c3)c2c1	-93	·	·	-24	·	83*	-4	-2
CC(C)C[C@H](NC(=O)C1(c2ccccc2)CCN(C(=O)[C@H]2CSCN2C(=O)OC(C)(C)C)CC1)C(=O)O	-40	6	-1	4	i	-17	-2	2

Some of these compounds in order of SMILES length, high to low:
SMILES	HIV Env fusion	PABP polyA inh	eIF4H FP inh	Yeast UUG start	Rce1 inh	CSC inhib	MT1-MMP act inh	MT1-MMP act inh RFP
CC(C)C[C@H](NC(=O)C1(c2ccccc2)CCN(C(=O)[C@H]2CSCN2C(=O)OC(C)(C)C)CC1)C(=O)O	-40	6	-1	4	i	-17	-2	2
COc1ccccc1/C=C/CN1CCCC(CO)(CCc2ccccc2)C1 (stereo not drawn)	15	5	-4	1	i	8	-2	-1
CS(=O)(=O)N1CCCC(C(=O)Nc2cccc(F)c2)C1 (stereo not drawn)	7	6	-11	1	i	-12	0	1
Cc1ccc(O)c(C(=O)CC(=O)c2cccc(F)c2)c1	·	-7	-10	·	i	8	-2	-11
COc1ccc(/C=N/NC(=O)CSc2ccccc2)cc1OC	·	2	-12	·	i	·	2	4

New compounds follow
SMILES	HIV Env fusion	PABP polyA inh	eIF4H FP inh	Yeast UUG start	Rce1 inh	CSC inhib	MT1-MMP act inh	MT1-MMP act inh RFP
CCn1c(CCCCc2n[nH]c(=S)n2CC)n[nH]c1=S	16	-2	-2	·	i	7	-1	3
CCN(C(=O)COC(=O)c1ccc(Cl)c(N)c1)C1CCS(=O)(=O)C1 (stereo not drawn)	5	-25	2	-17	i	-9	4	4
O=C(COc1ccc(Cl)cc1)N1CCN(Cc2ccc3c(c2)OCO3)CC1	-1&-5	7	9	-18&-11	i	26&-3	1&-2	-4&-8
CCCC(C)(C)C(=O)N1CCC1(C)C(=O)NS(=O)(=O)c1ccc(Cl)cc1 (stereo not drawn)	4	·	·	3	·	·	-4	1
C/C(=N/NC(=O)c1ccc(Cl)s1)c1cccnc1	-53	2	18	-8	i	-1	-5	-2
Cc1coc2cc3oc(=O)c(CCC(=O)NCCN4CCOCC4)c(C)c3cc12	·	-4	0	-9	i	-9	5	4
COc1ccc(CNC(=O)c2ccc(Cn3cc(Cl)cn3)o2)cc1	-1	6	4	-17	i	-12	-1	2
CCC(=O)Nc1ccc(C(=O)CSc2nnc(CNc3ccc(Cl)cc3)o2)cc1OC	·	5	-1	-1	i	32	-1	-17
Cc1ccc(Cl)cc1-c1cc(C(=O)N2CCN(c3ccncc3)CC2)[nH]n1	0	·	·	-1	·	·	5	1
CCN1CCN(c2ccc(S(=O)(=O)N3CCCCC3)cc2NC(=O)CC(NC(C)=O)c2ccccc2)CC1 (stereo not drawn)	-5	·	·	·	i	-9	-1	0
CCOc1ncccc1C(=O)NCc1ccccc1F	12	-4	-12	-8	i	-6	-5	-4
Cc1ccc(NC(=O)COC(=O)CCc2c[nH]c3ccccc23)cc1[N+](=O)[O-]	8	-7	-18	·	i	-9	4	1
CCc1ccc(OCC(=O)N/N=C(\C)c2ccc(-n3ccnc3)cc2)cc1	-3	-10	-9	·	i	-13	6	-1
O=C(NCCCN1CCOCC1)c1ccc(S(=O)(=O)N2CCOCC2)cc1	·	-4	-9	3	i	-9	-1	0
CCCn1c(C(C)NC(=O)c2ccccc2)n[nH]c1=S (stereo not drawn)	11	8	6	·	i	-10	6	-2
CC1CCCN(c2nc3c(c(=O)n(C)c(=O)n3C)n2Cc2ccccc2)C1 (stereo not drawn)	-45	-1	-1	·	i	54	-5	-4
Cc1ccccc1-c1cc2nc(OCC3CCCO3)n(C)c(=O)c2s1 (stereo not drawn)	21	·	·	4	·	·	0	2
C=CC(=O)NC(C)(C)Cc1ccccc1	-51	3	5	-14	i	7	1	-1
COc1ccc(NC(=O)CCC(=O)N(Cc2ccc(OC)c(OC)c2)c2nccs2)cc1	-7	-4	-4	1	i	-15	4	4
